From PubChem BioAssay
Mtb H37Rv – M. tuberculosis H37Rv growth inhibitors, H37Rv strain (AID 1626); M. tuberculosis H37Rv growth inhibition; higher % means a stronger effect; inhibition, % at 10 µM; hits with a dose series show IC50 in µM; hit rate 0.95% among 220,000;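 active means confirmed in a dose series; inconclusive means inhibition above 80% but not taken into the dose series; inactive means below 80% or under 30% at every dose of the series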;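 further: bacteria incubated seven days before Alamar blue readout; 0% = bacteria only wells and 100% = bacteria with antibiotic wells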
RecA intein inh – Mtb RecA intein splicing inhibition | cell-free RecA intein splicing, fluorescence | inhibition, %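 (about 9 µM by stock and volumes)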 | P9WHJ3 | AID 2221 | hit rate 0.75% among 290,000; in the data active means inhibition above about 30%; inconclusive means no clear call, values can overlap the other calls;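 further: 0% = vehicle wells and 100% = reference inhibitor control wells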
Target sequence (P9WHJ3 whole entry, looked up): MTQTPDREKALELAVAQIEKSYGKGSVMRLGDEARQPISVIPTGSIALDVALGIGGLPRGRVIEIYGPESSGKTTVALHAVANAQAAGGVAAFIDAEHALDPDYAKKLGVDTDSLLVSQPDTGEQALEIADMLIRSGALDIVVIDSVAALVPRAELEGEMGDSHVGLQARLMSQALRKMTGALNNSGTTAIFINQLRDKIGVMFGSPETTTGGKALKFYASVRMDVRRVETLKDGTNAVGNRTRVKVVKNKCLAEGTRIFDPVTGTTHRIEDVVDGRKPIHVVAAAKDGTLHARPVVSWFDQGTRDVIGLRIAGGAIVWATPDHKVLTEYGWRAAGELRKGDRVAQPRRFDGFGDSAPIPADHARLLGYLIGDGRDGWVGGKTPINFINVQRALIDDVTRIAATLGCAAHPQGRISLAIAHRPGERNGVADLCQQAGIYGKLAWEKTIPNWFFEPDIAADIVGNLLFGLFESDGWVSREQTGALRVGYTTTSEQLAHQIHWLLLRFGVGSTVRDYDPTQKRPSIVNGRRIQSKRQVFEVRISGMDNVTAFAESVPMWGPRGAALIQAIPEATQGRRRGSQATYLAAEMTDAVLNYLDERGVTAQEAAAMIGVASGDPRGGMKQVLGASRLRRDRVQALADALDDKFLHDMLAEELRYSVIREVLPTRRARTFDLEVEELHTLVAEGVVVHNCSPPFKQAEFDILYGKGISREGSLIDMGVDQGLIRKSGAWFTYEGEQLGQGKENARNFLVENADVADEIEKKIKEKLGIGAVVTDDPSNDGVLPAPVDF
Mtb bLac sens – beta-lactam sensitization of Mtb H37Rv; M. tuberculosis H37Rv growth with meropenem, percent inhibition; hits of this screen are not shown here; inhibition, % at 25 µM; hit rate 0.27% among 330,000;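 active means about 74% or more and at least 40 points above the plate without the antibiotic, then above 30% in a dose series; inconclusive means first-round hits that could not be retested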;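 further: growth measured after seven days incubation then overnight dye step; 0% = bacteria only wells and 100% = bacteria with antibiotic; twin plates without the antibiotic show which effects depend on it; some results filed as inactive read as strong as hits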
YopH inh – blocks Yersinia enterocolitica YopH tyrosine phosphatase; fluorescence Ex485/Em525; inhibition, %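 (about 10 µM by stock and volumes)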; hit rate 0.16% among 140,000;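 active means inhibition of 50% or more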;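 further: controls were vehicle for no effect and minimum signal wells for full effect; inactives centre near -20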
Arbovirus anti – antivirals against arbovirus infection. AID 1251. hit rate 0.37% among 200,000. inhibition, % at 10 µM. arbovirus infection cell-based antiviral screen;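 active means inhibition from about 30%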;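 further: bluetongue infection of BSR cells; cell survival read as ATP light after 72 h; 0% = infected wells without compound and 100% = uninfected wells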
Arbovirus anti repeat – recorded beside Arbovirus anti, whose call it bears; inhibition, %; measured here: 10K subset replicate screen; many hits read low in the repeat;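 first of two repeat runs on a subset; 0% = infected and 100% = uninfected wells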
Starred values were filed as active, the others as inactive; ? = inconclusive; / = no result given.

SMILES | Mtb H37Rv | RecA intein inh | Mtb bLac sens | YopH inh | Arbovirus anti | others
CC(C)(CCO)Nc1ncnc2onc(-c3ccc(F)cc3)c12 | / | 0.8 | -9 | / | /
Cc1nnc(NC(=O)CN2C(=O)c3ccccc3S2(=O)=O)s1 | 1% | -1.4 | -1 | -16 | 5
CCn1c(SCC(=O)c2ccccc2)nnc1-c1cnccn1 | -2% | 2.7 | 12 | -21 | 0
Cc1ccc2nc(NCC(=O)O)nc(-c3ccccc3)c2c1 | 0% | -122 | 1 | -41 | -9
O=C(CSc1n[nH]c(-c2ccccn2)n1)Nc1ccc(F)cc1 | / | 1.5 | 36 | / | /
O=C(C1CC(=O)N(c2ccccc2)C1)N1CCN(c2ccccc2F)CC1 (centres undefined) | / | 0.1 | -4 | / | /
CCOC(=O)Cn1c(=NC(=O)c2ccc([N+](=O)[O-])s2)sc2ccccc21 | -2% | -45 | 2 | -12 | -5
C[C@H]1[C@H](C)CC[C@]2(C(=O)O)CC[C@]3(C)C(=CC[C@@H]4[C@@]5(C)CC[C@H](O)C(C)(C)[C@@H]5CC[C@]43C)[C@H]12 | 17% | 0.9 | 0 | / | /
Cc1ccc(SCC(=O)NC(=O)Nc2ccc3c(c2)OCCO3)cc1C | -3% | -0.2 | 3 | -25 | -3
Cc1ccc(NC(=O)NC(=S)NC(=O)c2ccccc2)cc1 | 71% | 2.4 | -5 | -24 | 21
COc1cc(-c2noc(C)c2C#Cc2nccn2C)cc(OC)c1OC | / | -1.7 | 20 | / | /
COC(=O)C(O)(c1ccc(NC(=S)NC(=O)c2ccc(Cl)cc2Cl)c(C)c1)C(F)(F)F (centres undefined) | 8% | 12 | -3 | -15 | 21
COCCCNC(=O)CN(c1cccc(Cl)c1C)S(C)(=O)=O | -5% | 0.5 | -2 | 13 | -3
Cc1c(C(=O)N(C)C(C)c2ccncn2)oc2c(F)cccc12 (centres undefined) | / | -3.0 | -2 | / | /
CS(=O)(=O)N1CC2CCCN2c2cc(C(F)(F)F)ccc21 (centres undefined) | -1% | -6.6 | -2 | / | 2
COc1cc(C)c(Br)cc1S(=O)(=O)NCc1ccccc1 | 1% | -2.5 | 1 | -63 | -1
Cc1nc(NC(=O)c2ccco2)sc1C(=O)O | / | 0.0 | 0 | / | /
CCCCCn1c(SCCOCC)nc2c1c(=O)[nH]c(=O)n2C | 8% | -0.4 | 3 | -42 | 12 | Arbovirus anti repeat=0
O=C(CSc1nc(Nc2ccccc2)nc(N2CCOCC2)n1)Nc1cccc([N+](=O)[O-])c1 | / | 12 | 35 | / | /
CC(C)(C)c1ccc2c(c1)N(CC(=O)N1CCOCC1)C(=O)CO2 | / | 19 | -4 | / | /
O=C(Nc1nnc(SCc2ccc(F)cc2)s1)C1Cc2ccccc2CN1C(=O)c1ccco1 (centres undefined) | -4% | 9.7 | 79 | -32 | -9
O=[N+]([O-])c1cc(-c2nnc(N3CCOCC3)c3ccccc23)ccc1N1CCOCC1 | -4% | 2.5 | 2 | / | 10
O=C(CN(C(=O)c1ccccc1Cl)C1CCCCC1)Nc1ccc(Cl)c([N+](=O)[O-])c1 | -4% | 6.4 | 8 | 6 | -5
CCN(CC)S(=O)(=O)c1ccc2oc(C(=O)N3CCc4ccccc4C3)c(C)c2c1 | 4% | 7.7 | 50 | -13 | -1
CN(C)C(=O)OCc1n(C)cc[n+]1C | -4% | 1.3 | -1 | -26 | 4
COc1cccc(-c2cc(C(=O)Nc3c(C)nn(Cc4ccccc4)c3C)no2)c1 | -7% | 0.0 | 27 | 13 | -18
CC(C)C1NC(=S)N(Cc2ccccc2)C1=O (centres undefined) | -11% | -0.2 | -2 | -6 | 16
COc1c(-c2ccc(O)cc2)oc2cc(O)cc(O)c2c1=O | -4% | / | -5 | / | /
COc1ccc(CCNC(=O)c2cc(-c3ccco3)nc3ccccc23)cc1 | / | 9.9 | -18 | / | /
Cc1noc(C)c1COc1ccc(C(=O)O)cc1 | -3% | -3.9 | -4 | / | 5
COc1ccc(C(=O)NN=C2CCCC2)cc1 | / | -2.2 | -10 | / | /
COc1ccccc1OCCNC(=O)c1c(-c2ccccc2Cl)noc1C | / | 2.5 | 0 | / | /
COc1cccc(-c2cc(C(=O)N3CCN(S(=O)(=O)c4ccccc4)CC3)[nH]n2)c1 | / | -0.6 | 0 | / | /
CCOC(=O)c1cc(-c2ccc(C)cc2)n(CC(=O)NCc2ccco2)c1C | -5% | -5.6 | -1 | -33 | 4 | Arbovirus anti repeat=-7
COC(=O)[C@@H]1C[C@H]1[C@@H](NS(=O)(=O)c1ccccc1)c1ccccc1 | -5% | -2.5 | 1 | -14 | -3
COc1ccc(/C(C#N)=C/c2ccccn2)cc1 | 3% | -21 | 8 | / | /
CCn1c(=O)c(=O)[nH]c2cc(C(=O)Nc3ccc(S(=O)(=O)N4CCCC4)cc3)ccc21 | 2% | -4.1 | 4 | -22 | -4
c1cncc(C2Nc3ccccc3-c3nc4ccccc4n32)c1 (centres undefined) | 6% | -9.4 | 2 | -1 | -3
Cn1ncc(Cl)c1C(=O)NC1CCCC1 | / | -0.5 | -6 | / | /
Cc1ccccc1CN1CCN(CC(=O)NCc2ccc3c(c2)OCO3)C1=O | -6% | -1.1 | 16 | -57 | -2
CCc1nnc(NC(=O)CSc2nc3ccccc3o2)s1 | 7% | 0.5 | 84 | 5 | 26
O=S(=O)(c1ccc2nc(COc3ccccc3)[nH]c2c1)N1CCOCC1 | -4% | -1.2 | -3 | -20 | -1
COc1cccc(-c2nnc(-c3ccc(C(F)(F)F)cc3)o2)c1OC | -4% | -2.8 | 10 | -27 | 0
CCN1CCCC1CNC(=O)C(=O)Nc1ccccc1 (centres undefined) | / | 1.2 | -7 | / | 3
CN(C)[C@@H]1C(=O)C(C(N)=O)=C(O)[C@@]2(O)C(=O)C3=C(O)c4c(O)ccc(Cl)c4[C@@](C)(O)C3C[C@@H]12 (some centres undefined) | / | / | / | -48 | -11
O=C(/C=C/c1cccc2ccccc12)N1CCOCC1 | -6% | 1.7 | -3 | / | /
O=C(Cn1ncc2c3ccccc3n(Cc3cccc(Cl)c3)c2c1=O)N1CCC2(CC1)OCCO2 | 14% | 1.2 | 1 | -8 | -17
CCCCNC(=O)Cc1c(OC)ccc2cc(Br)ccc12 | -3% | 0.7 | -2 | -35 | 1
CC(C)(CC(=O)O)CC(=O)N1CCN(c2nc3cc(Cl)ccc3s2)CC1 | / | -0.3 | 1 | / | /
O=C(NCc1ccccn1)c1cc(-c2ccccc2Cl)on1 | 7% | -2.1 | -10 | -93 | -5
Cc1nnc(SCc2nnc(-c3cccs3)o2)n1C1CCCCC1 | 8% | 2.5 | -1 | / | 5
CCOC(=O)CNC(=O)CN1CCCN(S(=O)(=O)c2ccc(Br)s2)CC1 | / | / | 8 | -19 | 3
O=C(NCc1ccco1)C12CC3CC(C1)CC(C(=O)NCc1ccco1)(C3)C2 | -5% | -1.0 | ? | -58 | 0
O=C(CCC1CC(=O)Nc2ccccc21)NCc1ccc(F)cc1 (centres undefined) | 1% | 0.9 | / | -5 | 0
O=C1/C(=C/c2ccsc2)N2CCC1CC2 | -4% | 0.5 | 22 | / | /
Cc1cccc(C)c1OCC(O)CN1CCCCC1 (centres undefined) | -1% | -1.2 | 0 | / | 4
CCC(=O)N=c1sc2ccccc2n1-c1ccccc1 | 11% | -5.4 | -2 | / | -4
C=CCNC(=S)Nc1ccccc1-c1nnc2n1CCCCC2 | / | 1.2 | 4 | / | /
Cc1ccc(-c2nc(=S)c3c(n2CCN2CCOCC2)CC(C)(C)OC3)cc1 | 2% | 0.3 | -14 | -21 | 8
Cc1[nH]nc2oc(=O)c(CCO)c(C)c12 | 6% | 1.0 | -4 | 2 | 4

Next part (three carried over from the part before).
SMILES | Mtb H37Rv | RecA intein inh | Mtb bLac sens | YopH inh | Arbovirus anti | others
C=CCNC(=S)Nc1ccccc1-c1nnc2n1CCCCC2 | / | 1.2 | 4 | / | /
Cc1ccc(-c2nc(=S)c3c(n2CCN2CCOCC2)CC(C)(C)OC3)cc1 | 2% | 0.3 | -14 | -21 | 8
Cc1[nH]nc2oc(=O)c(CCO)c(C)c12 | 6% | 1.0 | -4 | 2 | 4
COc1ccc(NCc2nnc(SCC(=O)Nc3cccc(C)c3)o2)cc1 | 69% | 7.5 | 96 | -43 | -13
Cc1ccc(N2CCN(/N=C/c3c(C)nn(-c4ccccc4)c3Cl)CC2)cc1 | 0% | -3.2 | -5 | -34 | 4
Cc1ccc(C(O)C(=O)c2ccco2)cc1 (centres undefined) | / | -3.6 | -3 | / | /
Cc1cc(C)n(C(C)CNS(=O)(=O)c2ccc(Cl)cc2)n1 (centres undefined) | / | 1.4 | 2 | / | /
c1ccc2c(CCNC3=NCCC3)c[nH]c2c1 | 3% | -3.1 | -6 | -12 | 0
CCOC(=O)NC1(C(F)(F)F)N=C(c2ccccc2)NC1=O (centres undefined) | -5% | 0.9 | 4 | -18 | 10
Cc1ccc(NC(=O)Cn2c(CCC(=O)O)ccc2-c2cccs2)cc1 | 3% | 1.3 | 15 | -48 | 7
CCOC(=O)c1ccc(NC(=O)CNC(=O)c2ccccc2)cc1 | 0% | -2.2 | 3 | 1 | 8
O=C(C1=C(O)C(=O)N(CCN2CCOCC2)C1c1ccccc1)c1cccs1 (centres undefined) | 0% | 1.8 | 6 | -28 | /
Fc1cccc(C2CC(c3cccc(Br)c3)Nc3nnnn32)c1 (centres undefined) | 10% | -2.0 | 2 | -37 | 5
CC(C)CCNC(=O)CN(Cc1ccc2c(c1)OCO2)C(=O)CCC(=O)Nc1ccccn1 | 5% | -1.9 | -4 | -43 | 2
COc1ccccc1NC(=S)N1CCN(C(=O)C2CCCO2)CC1 (centres undefined) | -8% | 0.0 | 4 | / | -1
COc1ccc(C2=NN(CCC(=O)NCc3ccc4c(c3)OCO4)C(=O)CC2)cc1 | -2% | -5.4 | 5 | -6 | -1
O=C(Nc1ccccc1C(=O)O)c1cccc(NC(=O)c2ccco2)c1 | / | -4.4 | -2 | / | /
Cc1cccc(Cc2nnc(CCC(=O)N(C)C3CCOC3)o2)c1 (centres undefined) | 1% | 0.8 | -1 | / | 0
COc1ccc(Cc2c(O)nc(SCC(=O)c3ccc(OC)cc3)[nH]c2=O)cc1 | 3% | -0.9 | 2 | / | 9

Molecules from the list above containing an aryl methoxy group:
SMILES | Mtb H37Rv | RecA intein inh | Mtb bLac sens | YopH inh | Arbovirus anti | others
COc1cc(-c2noc(C)c2C#Cc2nccn2C)cc(OC)c1OC | / | -1.7 | 20 | / | /
COc1cc(C)c(Br)cc1S(=O)(=O)NCc1ccccc1 | 1% | -2.5 | 1 | -63 | -1
COc1cccc(-c2cc(C(=O)Nc3c(C)nn(Cc4ccccc4)c3C)no2)c1 | -7% | 0.0 | 27 | 13 | -18
COc1c(-c2ccc(O)cc2)oc2cc(O)cc(O)c2c1=O | -4% | / | -5 | / | /
COc1ccc(CCNC(=O)c2cc(-c3ccco3)nc3ccccc23)cc1 | / | 9.9 | -18 | / | /
COc1ccc(C(=O)NN=C2CCCC2)cc1 | / | -2.2 | -10 | / | /
COc1ccccc1OCCNC(=O)c1c(-c2ccccc2Cl)noc1C | / | 2.5 | 0 | / | /
COc1cccc(-c2cc(C(=O)N3CCN(S(=O)(=O)c4ccccc4)CC3)[nH]n2)c1 | / | -0.6 | 0 | / | /
COc1ccc(/C(C#N)=C/c2ccccn2)cc1 | 3% | -21 | 8 | / | /
COc1cccc(-c2nnc(-c3ccc(C(F)(F)F)cc3)o2)c1OC | -4% | -2.8 | 10 | -27 | 0
CCCCNC(=O)Cc1c(OC)ccc2cc(Br)ccc12 | -3% | 0.7 | -2 | -35 | 1
COc1ccc(NCc2nnc(SCC(=O)Nc3cccc(C)c3)o2)cc1 | 69% | 7.5 | 96 | -43 | -13
COc1ccccc1NC(=S)N1CCN(C(=O)C2CCCO2)CC1 (centres undefined) | -8% | 0.0 | 4 | / | -1
COc1ccc(C2=NN(CCC(=O)NCc3ccc4c(c3)OCO4)C(=O)CC2)cc1 | -2% | -5.4 | 5 | -6 | -1
COc1ccc(Cc2c(O)nc(SCC(=O)c3ccc(OC)cc3)[nH]c2=O)cc1 | 3% | -0.9 | 2 | / | 9

The list is partial. The share of hits here may be higher or lower than overall.
